# NPYLR7 ag: agonists of mosquito NPYLR7 receptor, primary screen, cell-based, Aedes aegypti, calcium fluorescence, mosquito biting behavior | hit rate 0.15% among 270,000 | HEK293T NPYLR7/Galpha15, GCaMP6s calcium fluorescence | Aedes aegypti neuropeptide Y-like receptor 7 (NPYLR7) | activation, % at 10 µM | AID 1259423, 2018; in the data active = activation above about 40%;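 note: 0% = vehicle and 100% = reference agonist at the receptor; some compounds past the cut are filed as inactive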
# NPYLR7 ag max-min: recorded beside NPYLR7 ag, whose call it bears; activation, %; measured here: Max-Min RFU normalised activation; some inactives read as strong as hits;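 span of the calcium signal over five minutes; 0% = vehicle and 100% = native peptide agonist; compound fluorescence can raise it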
# An asterisk follows results filed as active; & = joins results of further samples. These rows are one share of the data. The share of hits here may be higher or lower than overall.
# The first 6 entries (preview)
compound	NPYLR7 ag	NPYLR7 ag max-min
Cc1ccc(N(CCCN2C(=O)c3cccc4cccc(c34)C2=O)C(=O)C(C)(C)C)cc1	2	-5
COCCCN(Cc1c(-c2ccccc2)noc1N1CCCCC1)C(=O)Nc1cccc(Cl)c1	4	4
CC(C)Oc1ccc(CN2CCC2(C)C(=O)Nc2ccc3c(c2)OCO3)cc1 (stereo not drawn)	4	0
CNC(=O)NC(=O)COc1ccc(-c2ccccc2)cc1Cl	6	4
Cc1ccc(OCC(=O)Nc2ccnc(C(=O)N(C)C)c2)cc1C	-15	-16
Cc1ccn2c(=O)c(NC(=O)c3ccccc3Cl)c(C)nc2c1	5	2

# Results, previewed entries included:
compound	NPYLR7 ag	NPYLR7 ag max-min
Cc1ccc(N(CCCN2C(=O)c3cccc4cccc(c34)C2=O)C(=O)C(C)(C)C)cc1	2	-5
COCCCN(Cc1c(-c2ccccc2)noc1N1CCCCC1)C(=O)Nc1cccc(Cl)c1	4	4
CC(C)Oc1ccc(CN2CCC2(C)C(=O)Nc2ccc3c(c2)OCO3)cc1 (stereo not drawn)	4	0
CNC(=O)NC(=O)COc1ccc(-c2ccccc2)cc1Cl	6	4
Cc1ccc(OCC(=O)Nc2ccnc(C(=O)N(C)C)c2)cc1C	-15	-16
Cc1ccn2c(=O)c(NC(=O)c3ccccc3Cl)c(C)nc2c1	5	2
O=C(Nc1ccc(-c2ccn[nH]2)cc1)C1CCCN(Cc2cnn(-c3ccccc3)c2)C1 (stereo not drawn)	3	4
COc1ccccc1-c1c(C)nn2c(N3CCN(c4ccccc4)CC3)cc(C)nc12	2	9
CC(=O)N1N=C(c2ccccc2NS(C)(=O)=O)CC1c1cccc2cccnc12 (stereo not drawn)	3	2
O=C(NCCCNC(=O)[C@H]1CCCN1C(=O)c1cc(C(F)(F)F)cc(C(F)(F)F)c1)c1ccccc1	23	28
Nc1nc(-c2c(F)cccc2F)co1	1	-1
O=C1CC2(CCN(C(=O)CCc3ccc(-c4ccc(Cl)cc4)[nH]3)CC2)CN1	-9	-13
COc1ccc(CN(C)Cc2nnc(C(C)C)o2)cc1OC(F)F	-2	11
CCn1nnnc1-c1cccc(NC(=O)N2CC(C)OC(C)C2)c1 (stereo not drawn)	14	13
Cc1ccc(NC2CCCN(C(=O)c3cnc4ccccn4c3=O)C2)cc1C (stereo not drawn)	3	2
Nc1cccc(N=Cc2nc(-c3ccccc3Br)oc2O)n1	-4	-7
CC(Sc1n[nH]c(=O)[nH]c1=O)C(=O)O (stereo not drawn)	-3	-4
Oc1c(C(c2cccnc2)N2CCOCC2)ccc2cccnc12 (stereo not drawn)	-1	-2
C=CCn1nc(C(=O)O)c2c1CCC(N(C)Cc1sccc1C)C2 (stereo not drawn)	9	6
COCCN(Cc1ccc(OC)cc1)c1c(C)nc2ccc(C(=O)NCc3ccc(N(C)C)cc3)cn12	-5	-10
CC(C)CC(=O)Nn1cnc2c(cnn2-c2cccc(Cl)c2)c1=O	3	1
O=C(CN1CCN(Cc2cc3c(cc2Br)OCCO3)CC1)NC1CC1	-4	-4
Cc1ccc(NC(=O)N2CCN(CC(OCc3ccc(C(F)(F)F)cc3)c3ccc(Cl)cc3)CC2)cc1 (stereo not drawn)	27	16
CC(C)SC(NC(=O)OCc1ccccc1)C(=O)NC(c1ccccc1)c1ccc(Cl)cc1 (stereo not drawn)	-6	-12
OCCCc1nc2n(n1)C(c1ccccc1)CC(c1ccccc1)=N2 (stereo not drawn)	6	13
CCC(=O)N1CCN(c2ccc(NC(=O)COC)cn2)CC1	-5	4
CCc1ocnc1C(=O)N(C)CCc1nc2c(C)cccc2[nH]1	5	2
COc1ccc(-c2nc3scc(CCNS(=O)(=O)c4ccc5c(c4)OCCO5)n3n2)cc1	-16	-14
CCN(Cc1ccc2c(c1)OC(F)(F)O2)C1CCS(=O)(=O)C1 (stereo not drawn)	-2	-1
Cc1nccc(N2CCC(N3CCCC(C(=O)NC4CC4)C3)CC2)n1 (stereo not drawn)	28	18
CC(C)c1ccccc1S(=O)(=O)c1cc(N)c2ncccc2c1[N+](=O)[O-]	-19	-25
CC1(C)CN(C(=O)NCc2cccc(Cn3cncn3)c2)CCS1	-22	-24
O=C(CC1CCCO1)NC(c1cccs1)C1CCCC1 (stereo not drawn)	-4	-5
Cc1ccc(Nc2nc(-c3c(N)n(C)c(=O)n(C)c3=O)c(C)s2)cc1	1	-2
CCc1ccc(C(=O)N(Cc2ccc(OS(=O)(=O)c3cccc(C(F)(F)F)c3)cc2)CC(C)C)cc1	-6	0
CC(C)(C)c1ncc(C(=O)Nc2cc(Br)ccc2-n2cncn2)s1	-2	6
COc1cccc(NC(=O)Cn2cc(-c3nnc(C)o3)c3ccccc32)c1	0	5
CC(C)(C)NC(=O)N1CCN(c2nc(-c3ccc(Cl)cc3)nc3ccccc23)CC1	6	8
CC12C(=O)N(c3cccc([N+](=O)[O-])c3)C(=O)C1C(c1ccccc1)N1CCCN12 (stereo not drawn)	12	7
c1csc(-c2nnc(SCc3cn4ccccc4n3)n2C2CC2)c1	1	4
COc1ccc(Br)cc1CN(C)C(=O)/C=C/c1ccc(C#N)cc1	1	-2
Cc1[nH]nc2c1C(c1c(F)c(F)c(F)c(F)c1F)C(C#N)C(=N)O2 (stereo not drawn)	25	19
O=C(COc1ccc(Cl)cc1)NNC(=O)c1ccccc1C(=O)O	2	0
CCc1nnc(N2C(=O)c3ccc(C(=O)c4ccc(C(=O)O)cc4)cc3C2=O)s1	9	8
Cn1cnnc1C1CCN(C(=O)c2ccccc2C2CCNC2)CC1 (stereo not drawn)	-4	-5
O=C(NCc1ccco1)c1ccc2nc3ccsc3c(=O)n2c1	11	5
C=C(C)[C@@H]1CC[C@]2(CO)CC[C@]3(C)[C@H](CC[C@@H]4[C@@]5(C)CC[C@H](O)C(C)(C)[C@@H]5CC[C@]43C)[C@@H]12	24	9
CC1=CC(=NNc2ccnc3cc(Cl)ccc23)CC1	2	-1
Cc1n[nH]c(C)c1CCCNC(=O)CCn1c(C)cc2ccccc21	16	12
CCCCCOC(=O)C1=C(C)NC(=O)NC1c1cc(OC)ccc1OC (stereo not drawn)	-6	-8
CCC(C)NC(=O)c1coc(CN(CCc2c[nH]c3ccccc23)Cc2ccc(Cl)cc2Cl)n1 (stereo not drawn)	-3	0
O=C(CCn1c(=O)oc2ccccc21)N1CCN(c2ccccc2F)CC1	0	0
CCCCNc1cc(C(=O)O)cc(S(N)(=O)=O)c1Oc1ccccc1	-16&-3&1&2	-19&-7&-2&-5
CCOC(=O)c1c(C)nn(-c2ccc(C(=O)NC34CC5CC(CC(C5)C3)C4)cc2)c1C	-10	-14
CCOC(=O)C1(C(=O)OCC)Oc2ccc3ccccc3c2C1O (stereo not drawn)	-12	-16
COc1cccc(-c2noc(C(C)NC(=O)N(C)C3CC3)n2)c1 (stereo not drawn)	-13	-16
CCOCCOc1cnn(-c2ccccc2)c(=O)c1Nc1cccc(C(=O)NCc2ccc(F)cc2)c1	-3	4
Cn1ccc(C(=O)NC(c2ccccc2)c2ccc(F)cc2)cc1=O (stereo not drawn)	-4	-7
CCOC(=O)c1nn(-c2ccc(C(=O)NCCc3cccs3)cc2)c2c1Cc1ccccc1-2	0	10
Cc1ccc2c(=O)[nH]c(Cc3ccccc3C(=O)O)nc2c1	-8	-8

# Following part
compound	NPYLR7 ag	NPYLR7 ag max-min
Cc1c(-c2ccccc2)[n+](CC(=O)c2ccc(Cl)cc2)c2ccccn12	3	3
Cc1cc(F)ccc1Oc1cc(N2CCN(C3CCCC3)CC2)ncn1	-8	-2
CCc1ccc(CN(Cc2cccnc2)Cc2ccsc2)nc1	-4	-7
COc1ccc(C2CC(c3cccc(F)c3)=NN2C(=O)CN2CCc3ccccc3C2)cc1 (stereo not drawn)	23	20
CC(Oc1ccc(Br)cc1)C(=O)NCC(C)(C)N1CCOCC1 (stereo not drawn)	-3	-4
Cc1ccsc1[C@@H]1CCN(C(=O)CC2=CCCCC2)C[C@H]1O	11	9
c1ccc2c(c1)Nc1nc3ccccc3nc1S2	34	34
Cc1ccc(C(NC(=O)C(=O)c2ccco2)c2cccnc2)c(C)c1 (stereo not drawn)	1	-2
Cc1cc(C)c2nc(N(CCN(C)C)C(=O)c3cccc([N+](=O)[O-])c3)sc2c1	-9	-13
FC(F)(F)c1ccc(N=c2oc3ccccc3cc2-c2nc3ccccc3[nH]2)cc1	-2	-9
CC1(C)O[C@@H]2C[C@@](OCc3cccc(C(F)(F)F)c3)(C(=O)NCC3CCCO3)CC(OCc3cccc(Cl)c3)[C@@H]2O1 (stereo partly drawn)	-1	13
Cc1nc(NC(=O)N2CCC[C@H]2C(N)=O)sc1-c1csc(C(C)(C)C)n1	-1	-9
Cc1ccc(Cc2nsc(N(CC(=O)NCCc3ccccc3)Cc3ccccc3)n2)cc1	-1	1
O=C1Nc2c(Br)cc(F)cc2C1=NN1CCOCC1	4	2
COC(=O)Nc1ccc(S(=O)(=O)N2CCCC(C(=O)N(C)C3CCCCC3)C2)cc1 (stereo not drawn)	-6	-12

# Going on with the list.
# Sequence of screens: NPYLR7 ag, NPYLR7 ag max-min
> O=C(NCc1noc(Cn2ccnc2)n1)c1ccccc1
 : -2, -1
> O=C(CCc1nnc(Cc2ccc3c(c2)OCO3)[nH]c1=O)NCc1ccccn1
 : 6, 3
> CCOc1ccc(NC(=O)c2ccc(Cl)o2)cc1
 : 5, 6
> CSc1ccccc1NC(=O)CN1C(=O)NC2(CCCCC2C)C1=O (stereo not drawn)
 : 5, -1
> Cc1ccc(C)c(-c2csc3nc(CNCc4ccco4)[nH]c(=O)c23)c1
 : 14, 18
> Cc1cnc(CNC(=O)c2c(C)noc2-c2cccc(C(F)(F)F)c2)cn1
 : 1, 0
> N#Cc1c(C(F)(F)F)cc(-c2ccccc2)nc1SCC(=O)Nc1ccc(Cl)cc1
 : -6, -11
> O=C1COc2ccccc2CCNC(=O)[C@H](Cc2ccc(OCCOCc3ccccc3)cc2)N1
 : 3, 12
> COC(=O)c1ccc(C(=O)OC)c(S(=O)(=O)N2CCc3cc(-c4csc(C)n4)ccc32)c1
 : 12, 14
> Cc1ccc(-n2nc(-c3cccs3)cc2C(=O)NCc2cccc(C(F)(F)F)c2)cc1
 : 12, 16
> Cc1cc(C)cc(-c2nc3cc(C)ccn3c2NC(=O)Nc2cccc(C(F)(F)F)c2)c1
 : -4, 1
> COc1cc(NC(=O)CSc2nncs2)cc(OC)c1
 : 6, 3
> CCOc1ccccc1N1C(=O)CSC1c1ccc(NC(=O)c2cc(OC)cc(OC)c2)cc1 (stereo not drawn)
 : 20, 24
> COCCN(CC(=O)N(Cc1ccccc1)Cc1cccs1)C(=O)Nc1cc(C(F)(F)F)cc(C(F)(F)F)c1
 : -12, -15
> N#Cc1ccc(Cl)cc1Cl
 : 2, 3
> CC(C)OC(=NC(=O)c1cccs1)N(C)Cc1ccccc1
 : -3, 0
> O=C(c1ccccc1C(F)(F)F)N1CCc2ccccc2C1c1ccccc1F (stereo not drawn)
 : -2, 7
> CCOc1ccc(Cl)cc1S(=O)(=O)NCc1ccco1
 : 6, 4
> Cc1ccc(C)c(-n2nc(-c3ccccc3Cl)cc2C(=O)NC(Cc2ccccc2)c2ccccc2)c1 (stereo not drawn)
 : 13, 25
> CC(=O)N1CCn2nc(C(=O)NCCc3sccc3C)cc2C1
 : 1, -2
> COc1ccc(NC(=O)CN2Cc3ccc(Nc4cc(C)nn4C)nc3C2=O)cn1
 : -17, -16
> Cc1ccc(S(=O)(=O)N2CCC(n3nc(C(C)C)cc3C(C)C)CC2)cc1Cl
 : 10, 7
> COc1cccc(NC(=O)C2(C)CCN2C(=O)CC2CC2)c1 (stereo not drawn)
 : 1, 1
> NC(=S)c1ccsc1
 : 6, 10
> Cn1cccc1C1CCCN1C(=O)c1ccc(C#N)cc1 (stereo not drawn)
 : 0, -4
> Cc1cnc(CN(C)C(=O)C2CCCN(C3CCN(C)CC3)C2)[nH]1 (stereo not drawn)
 : 6, -1
> COc1ccc(-c2csc(-n3[nH]c(C)c(N=Nc4ccc([N+](=O)[O-])cc4)c3=O)n2)cc1
 : 2, -6
> CCC(c1nc2ccc(C)cc2[nH]1)n1ccnc1-c1ccoc1 (stereo not drawn)
 : -5, -4
> COc1ccccc1/C=C/c1nn2c(-c3ccoc3C)nnc2s1
 : 4, 2
> Cc1cc(C)c(NC(=O)CSc2nc3ccc(N4C(=O)c5ccccc5C4=O)cc3s2)c(C)c1
 : -4, -8
> C=C(C)CSc1[nH]c(=O)cc(C)c1C#N
 : -3, -5
> CC(NC(=O)c1cnnn1-c1ccccc1)c1ccccc1-n1cccn1 (stereo not drawn)
 : 10, 8
> N#Cc1cccc(S(=O)(=O)Oc2ccccc2)c1
 : 3, -3
> CCCCn1nnnc1CSc1nc(C)c(C)c(C)c1C#N
 : 3, 4
> Cn1c(SCC(=O)c2c[nH]c3ccccc23)nnc1-c1cccnc1
 : 7, 2
> COc1ccc(OC)c(NC(=O)N2CCc3ccccc3C2c2ccc(Cl)cc2)c1 (stereo not drawn)
 : 1, 11
> O=c1oc2ccc([N+](=O)[O-])cc2cc1-c1csc(Nc2cccc(C(F)(F)F)c2)n1
 : 0, -4
> CCN(CCC#N)C(=O)Cc1cccc(I)c1
 : 0, -11
> O=C(CN1c2cccc3cccc(c23)S1(=O)=O)NCCOc1ccc(Cl)cc1
 : 4, 2
> CC(C)Oc1ccc(C(=O)N(CCC(N)=O)c2ccc(F)cc2)cn1
 : 9, 6

# Part of the list above, set out differently.
Cn1c(SCC(=O)c2c[nH]c3ccccc23)nnc1-c1cccnc1
  NPYLR7 ag = 7; NPYLR7 ag max-min = 2

COc1ccc(OC)c(NC(=O)N2CCc3ccccc3C2c2ccc(Cl)cc2)c1 (stereo not drawn)
  NPYLR7 ag = 1; NPYLR7 ag max-min = 11

O=c1oc2ccc([N+](=O)[O-])cc2cc1-c1csc(Nc2cccc(C(F)(F)F)c2)n1
  NPYLR7 ag = 0; NPYLR7 ag max-min = -4

CCN(CCC#N)C(=O)Cc1cccc(I)c1
  NPYLR7 ag = 0; NPYLR7 ag max-min = -11
